Screening results (PubChem BioAssay)
Sa helicase inh – inhibitors of S. aureus replicative helicase, primary screen, biochemical, fluorescence unwinding readout | hit rate 0.05% among 120,000 | AID 485395, 2010 | inhibition, %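 (tested at about 80 µM)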 | purified S. aureus helicase, fluorescence unwinding assay; about half of the hits fall short of the stated cut;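 active = both duplicates at 50% or more, or one of them with a favoured structure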;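 note: 0% = mean of negative control wells and 100% = mean of positive control wells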
MgrA DNA FP – S. aureus MgrA activity modulators, primary screen, biochemical, S. aureus Newman, fluorescence polarization; MgrA-DNA binding; hit rate 0.13% among 84,000; inhibition, %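 (about 10 µg/mL by stock and volumes)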;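 active = above 50% in either of two replicates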;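 note: 0% = protein plus DNA without compound and 100% = DNA alone without protein; higher means less MgrA bound to DNA so lower polarization; one replicate is shown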
* hit, by the source's call; / = no result given; & = joins results of further samples. Only part of the results is shown. The share of hits here may be higher or lower than overall.

SMILES	Sa helicase inh	MgrA DNA FP
Cc1nnc(N2C(=O)C(O)=C(C(=O)c3cccs3)C2c2ccccc2F)s1 (stereo unspecified)	-32.0	/
O=c1c2oc3ccccc3c2ncn1Cc1ccccc1	1.0	/
Cc1nc2c(ccc3nc(NC(=O)C4CC4)sc32)s1	11.0	/
CCC(C(=O)N1CCC(C)CC1)c1ccccc1 (stereo unspecified)	21.0	1.2
CCOc1cc2c(cc1OCC)C1C(C(=O)NCCCN3CCN(CC)CC3)c3ccccc3C(=O)N1CC2 (stereo unspecified)	25.0	/
COc1ccc(-c2noc(CC(=O)O)c2-c2ccc(OC)cc2)cc1	-1.0	/
Cc1ccnc(NC(=O)COc2ccc(Cl)cc2Cl)n1	-6.0	-0.2
CCN(CC(=O)Nc1ccccc1Br)C1CCCCC1	-1.0	/
O=C(Cc1ccc(F)cc1)Oc1ccccc1F	2.0	-0.8
COc1ccc2nc3[nH]nc(NC(=O)Cc4ccccc4OC)c3cc2c1	20.0	0.3
COC(=O)c1sc(C(C)(C)C)cc1CS(=O)(=O)c1ccc(Cl)cc1	/	0.7
CCOC(=O)N/N=C/c1cccc(Br)c1	-10.0	/
COc1cc(/C=C2\C(=O)NC(=O)N(c3ccc(Cl)cc3)C2=O)cc(Cl)c1O	/	22.3
CC(=O)n1c(C)cc(=O)[nH]c1=O	-7.0	/
CC1CC(C)CN(S(=O)(=O)c2ccc(F)c(F)c2)C1 (stereo unspecified)	-14.0	-1.4
CCN(CC)CCOC(=O)c1ccc(NC(=O)CCN2C(=O)/C(=C/c3ccc(F)cc3)SC2=S)cc1	/	-0.6
Cc1ccc(Nc2cc(C(=O)O)c3ccccc3n2)c(C)c1	-1.0	/
O=C(NC1CCCc2ccccc21)c1ccc2c(=O)n3c(nc2c1)CCCCC3 (stereo unspecified)	18.0	/
COC(=O)C1=C(C)N(c2ccccc2F)C(=O)/C1=C\c1cccc(OC)c1O	2.0	-1.8
O=C(CCc1ccc(-c2ccccc2)o1)Nc1ccccc1C(=O)NC1CC1	-1.0	/
CCC1C(=O)NCCN1C(=O)c1ccc(C)c(I)c1 (stereo unspecified)	-5.0	1.3
CCC(C)NC(=O)c1ccc2c(c1)N=C(C)c1cc(Cl)ccc1S2 (stereo unspecified)	2.0	-1.2
Cc1cc(NC(=O)c2sc3nc(-c4ccccc4)cc(C(F)(F)F)c3c2N)no1	-106.0	/
CCCc1ccc(-c2nc(-c3ccc(C(F)(F)F)cn3)no2)cc1	/	1.6
Cc1nc(-c2cnccn2)sc1C(=O)NCc1ccncc1	/	-0.2
COc1ccccc1NC(=O)COC(=O)CCC1CCCC1	-3.0	/
CCc1c(C)nc(N)n2c(SCc3ccc(C(F)(F)F)cc3)nnc12	-2.0	18.8
O=S1(=O)CC=C(Cl)C1	/	0.8
CCSc1n[nH]c(-c2ccc(Cl)cc2)n1	4.0	3.5
CCc1ccc(-n2c(N3CCN(c4ccccc4)CC3)nc3ccccc3c2=O)cc1	-6.0	/

Seven entries already listed, arranged by number of heavy atoms, highest first.
SMILES	Sa helicase inh	MgrA DNA FP
CCN(CC)CCOC(=O)c1ccc(NC(=O)CCN2C(=O)/C(=C/c3ccc(F)cc3)SC2=S)cc1	/	-0.6
CCc1ccc(-n2c(N3CCN(c4ccccc4)CC3)nc3ccccc3c2=O)cc1	-6.0	/
Cc1cc(NC(=O)c2sc3nc(-c4ccccc4)cc(C(F)(F)F)c3c2N)no1	-106.0	/
O=C(CCc1ccc(-c2ccccc2)o1)Nc1ccccc1C(=O)NC1CC1	-1.0	/
CCC1C(=O)NCCN1C(=O)c1ccc(C)c(I)c1 (stereo unspecified)	-5.0	1.3
CCSc1n[nH]c(-c2ccc(Cl)cc2)n1	4.0	3.5
O=S1(=O)CC=C(Cl)C1	/	0.8

The list continues:
SMILES	Sa helicase inh	MgrA DNA FP
COCCNc1ncnc2c1sc1nc(N3CCOCC3)c3c(c12)CCC3	14.0	-0.3
CCOC(=O)N1CCC(=NNc2ccc(Cl)c(C(=O)O)c2)CC1	-6.0	/
Cc1nc(SCC(=O)Nc2ccc(-c3ccccc3)cc2)c2c3c(sc2n1)CCC3	6.0	0.1
CC(=O)N1CCOc2cc(S(=O)(=O)N(C)C3CCCC(C)C3C)ccc21 (stereo unspecified)	6.0	1.3
CCOC(=O)c1sc(SC)nc1NS(=O)(=O)c1cc(C(F)(F)F)cc(C(F)(F)F)c1	/	-0.2
CN1CCC(N(C)C(=O)c2ccc3nccnc3c2)CC1	-6.0	0.6
O=C(Nc1c(C(=O)Nc2ccc3c(c2)OCO3)oc2ccccc12)c1ccco1	-19.0	/
Cc1cccc(CN2C(=O)CSc3ccc(C(=O)NCc4c(F)cc(F)cc4F)cc32)c1	6.0	2.1
NC1=NC(=O)C2(COC(c3ccccc3Cl)OC2)S1 (stereo unspecified)	-11.0	/
c1ccc(-n2nnnc2OCCOc2nnnn2-c2ccccc2)cc1	16.0	/
COc1ccccc1N(CC(O)CN1CCCCC1)S(=O)(=O)c1ccccc1 (stereo unspecified)	10.0	/
COc1ccc(C(C)=O)cc1CSC#N	/	-0.6
O=C(CSc1ncn[nH]1)NC1CCCCC1	-16.0	-0.6&2.0
Cn1c2c(c(=O)c3ccccc31)CCCC2	4.0	1.2
Cc1ccc(-n2c(C)cc(/C=C(/C#N)c3ccccc3)c2C)cc1	4.0	3.4
COc1cc(C=C2C(=O)NC(=O)NC2=O)cc(Br)c1OCc1c(C)no[n+]1[O-]	-12.0	/
CC(=O)Nc1ccc(OCc2ccc3c(c2)OCO3)cc1	9.0	-4.8
O=C(NC1CCCCC1)c1ccc(CNc2ccccc2)o1	2.0	/
Cc1ccc(-c2nnc(C3CCN(S(=O)(=O)c4ccc(Cl)s4)CC3)o2)cc1	9.0	/
N#CCCN(Cc1ccncc1)C(=S)NC1CC2C=CC1C2 (stereo unspecified)	-9.0	/
Cc1cc(=O)oc2cc(NC(=O)CSCC(=O)O)ccc12	/	-3.8
Cc1noc(C)c1S(=O)(=O)NC(C)c1ccccc1 (stereo unspecified)	13.0	0.9
N#C/C(=C\Nc1cccc(Cl)c1)S(=O)(=O)Cc1ccco1	/	1.1
COC(=O)C(C(=O)Nc1ccccc1C)C1CCCCCC1 (stereo unspecified)	1.0	1.2
O=C1C(=Cc2ccccc2)C(=O)N(c2ccccc2)C(=O)N1c1ccccc1	7.0	2.7
O=C(Oc1ccc(C=Nc2cccc(Br)c2)cc1)c1ccccn1	12.0	/
CCCN1C(=O)/C(=C/c2c(NCC)nc3ccccn3c2=O)SC1=S	-87.0	/
Clc1ccc(Cl)c(SCCc2ccncc2)c1	6.0	/
CN1C(=O)/C(=C/c2cn(CC(=O)NCc3ccco3)c3ccccc23)C(=O)NC1=S	-4.0	48.5
CCc1nnc(SCc2cc(=O)n3ccsc3n2)n1C	7.0	1.5
O=C1CCc2ccc(NC(=O)C3CC3)cc2N1	1.0	-2.2
CCSC(=S)c1c(C)[nH]n(-c2ccccc2)c1=O	/	1.6
O=S(=O)(c1ccc(Cl)cc1)n1cccc1	/	-0.2
COc1ccc(OCC(=O)O)cc1	8.0	-9.3
NC(=S)C(=S)N1CCOCC1	-11.0	3.4
O=C1CC(c2ccccc2)=NN1c1ccccc1	/	-1.5
COc1ccc(-n2c(SCC(=O)c3cc4ccccc4o3)nc3ccccc32)cc1	8.0	/
Cc1cc(N)n(-c2ccc(Cl)cc2)n1	12.0	/
Oc1ccc(Br)cc1C=NCc1ccccc1	10.0	-0.3
FC(F)(F)c1[nH]nc(-c2ccccc2)c1C12CC3CC(CC(C3)C1)C2	12.0	1.4
CCN(Cc1ccccc1)C(=O)CSc1nc(C)cc2c1C(=O)OC2	8.0	-1.6
Nc1[nH]ncc1-c1ccc(Cl)cc1	/	-0.6
O=C(Cc1c(C(=O)O)[nH]c2ccccc12)Nc1cccc(Cl)c1	9.0	/
Cc1nc2ccccc2nc1N1CCC(C)CC1	4.0	-1.5
Brc1ccc(CSc2nncn2-c2ccccc2)cc1	19.0	/
O=C(Cn1ncc2ccsc2c1=O)N1CCC(Cc2ccccc2)CC1	15.0	/
Cc1ccc(-c2cc(C(=O)NCC3CCCO3)[nH]n2)cc1C (stereo unspecified)	-8.0	/
O=C(CN1C(=O)C(c2ccccc2)Oc2cccnc21)NCc1ccccc1 (stereo unspecified)	-17.0	/
CC(=O)Nc1cc2c(cc1C(=O)c1ccccc1)OCCO2	-5.0	3.7
Cc1cc(C(=O)NCC2(c3ccccc3)CCOCC2)oc1C	14.0	4.8
Cc1nc(-c2ccc(Cl)cc2)cs1	/	0.5
CCn1c(SCC(=O)NC2CCCC(C)C2C)nnc1-c1ccccc1 (stereo unspecified)	-7.0	/
O=C(O)CCC1CCCCC1=O (stereo unspecified)	-4.0	0.0
CCOc1ccc(OCC)c(NC(=O)CSc2nc3c(c(=O)n(C)c(=O)n3C)n2C(C)C)c1	6.0	-0.6
CCOC(=O)N1CCN(C(=O)CSc2nnc(Cc3cccn3C)n2-c2ccc(F)cc2)CC1	9.0	-3.1
COc1cccc(CNc2nc3ccccc3n2C)c1	-2.0	/
C=CCNC(=S)Nc1c(C)nn(CC)c1C	5.0	-2.1
Cc1ccc(NC(CC(=O)C2CC2)c2ccccc2)cc1 (stereo unspecified)	/	3.5
O=C(Nc1ccccc1)Nc1ccccc1SCCS(=O)(=O)c1ccc(Cl)cc1	/	0.7
CC(C)(C)C(=O)CNS(=O)(=O)c1ccc(S(=O)(=O)NC2CCCCC2)cc1	11.0	0.1
Continued.
SMILES	Sa helicase inh	MgrA DNA FP
Cn1c(=O)n(Cc2ccccc2)c(=O)c2c1nc(Cl)n2Cc1ccccc1	6.0	2.5
COC(=O)C1=C(Nc2ccccc2NS(=O)(=O)c2ccc(C(F)(F)F)cc2Cl)CSC1	/	-1.8
C1=C(c2ccccc2)Nc2nc3ccccc3n2C1c1ccccc1 (stereo unspecified)	1.0	2.8
Cn1nccc1NC(=O)COCC(=O)O	/	-3.6
CN(N)C(=O)Nc1ccccc1	-2.0	/
N/C(=N\C(=S)Nc1ccccc1)N1CCN(Cc2ccccc2)CC1	7.0	-2.9
O=C(c1ccc(Oc2ccccc2)cc1)N1CCN(c2ccccn2)CC1	-9.0	-0.6
CCOC(=O)N1CCC2(CC1)C(C#N)=C(N)Oc1c2c(C)nn1-c1cccc(Cl)c1	23.0	1.6
O=C(O)CS(=O)(=O)/C=C/c1ccccc1	/	-3.8
C/C(=N/OC(=O)c1ccccc1)c1cccs1	3.0	1.1
CCOC(=O)Nc1c(C(=O)OCC)[nH]c2ccc(F)cc12	0.0	/
CCc1ccc(-n2c(SCC(=O)NC3CC3)nc3ccccc3c2=O)cc1	-3.0	/
COc1ccc(OCC(=O)Nc2ncccn2)cc1	5.0	-1.0
CSc1nc(COc2ccc(C(C)(C)C)cc2)nc(N)c1C#N	/	-1.1
Cc1ccc(-n2ncc3c(NCc4ccco4)ncnc32)c(C)c1	12.0	/
O=C(O)c1cc(-c2cccs2)nc2cc3c(cc12)OCCO3	33.0	/
NC(=S)N/N=C/c1cc2c(s1)-c1cc(Cl)ccc1OC2	/	1.3
CCOC(=O)c1c[nH]c2c(C)c(Cl)ccc2c1=O	5.0	0.9
CCN(CC(=O)Nc1ccc2c(c1)OCCO2)c1nc(-c2cccnc2)nc2ccccc12	4.0	/
O=C(CC(c1ccco1)S(=O)(=O)c1ccccc1)c1ccc(Cl)cc1 (stereo unspecified)	5.0	/
CCCOc1ccc(S(=O)(=O)n2cc(Br)c(=O)[nH]c2=O)cc1	5.0	/
CCOC(=O)C1CCN(CCC(C)(C)c2ccc(C)o2)CC1	9.0	1.4
COC(=O)C1=C(C)NC2=C(C(=O)CC(c3ccco3)C2)C1c1ccccc1Br (stereo unspecified)	1.0	0.3
Cc1cc(-c2nnco2)c(C)n1-c1ccccc1	1.0	-0.5
OC1CNc2c(ccc3ccccc23)C1 (stereo unspecified)	-4.0	/
Cn1ccnc1SC(F)(F)C(=O)c1cnc2ccccn12	/	-1.1
N#CC(c1ccc(C(=O)c2ccccc2)cc1)c1cccs1 (stereo unspecified)	/	0.7
CCCn1c(CCCNC(=O)C(C)(C)C)nc2ccccc21	13.0	/
Cc1cc(=O)[nH]c(-c2ccccc2OC(F)(F)F)n1	/	-2.9
COc1ccc2[nH]c(C)cc(=S)c2c1	12.0	-0.6
Cc1c(Cl)cn2c(=O)cc(CN3CCN(c4ccccc4O)CC3)nc2c1Cl	-2.0	/
Cc1noc(C)c1NC(=O)NCCOc1ccccc1	25.0	/
O=C(c1ccccc1)c1cnc(-c2ccccc2)s1	/	0.8
Cc1cc2cc(CNC(=O)c3ccc4c(c3)OCO4)ccc2n1C	16.0	/
CC(C)(C)C(=O)COC(=O)c1ccc2c(c1)OCCO2	-13.0	/
O=c1c2c(ncn2C2CCCC2)n(Cc2ccccc2)c(=O)n1Cc1ccccc1	-3.0	/
O=C(COC(=O)C1CCN(c2ccc(C(F)(F)F)cn2)CC1)NCc1ccccc1	-15.0	/
COC(=O)C1=CN(Cc2ccc(F)cc2)C=C(C(=O)OC)C1c1ccc2c(c1)OCO2	4.0	/
CCOC(=O)c1c(C)csc1NC(=O)CC#N	/	-1.5
CCOC(=O)c1cc(Oc2nc(C)nc3sc4c(c23)CCCC4)cc(C(=O)OCC)c1	10.0	-1.2
O=C(c1ccc(-n2ccnc2)cc1)c1ccc(-n2ccnc2)cc1	/	-0.9

Entries of single compounds, quoted from the list. Values in the order: Sa helicase inh, MgrA DNA FP
Record of CCOC(=O)c1sc(SC)nc1NS(=O)(=O)c1cc(C(F)(F)F)cc(C(F)(F)F)c1 : /, -0.2
Record of N/C(=N\C(=S)Nc1ccccc1)N1CCN(Cc2ccccc2)CC1 : 7.0, -2.9
Record of COc1ccc(-c2noc(CC(=O)O)c2-c2ccc(OC)cc2)cc1 : -1.0, /
Record of Cc1cc(NC(=O)c2sc3nc(-c4ccccc4)cc(C(F)(F)F)c3c2N)no1 : -106.0, /
Record of Cc1cc(-c2nnco2)c(C)n1-c1ccccc1 : 1.0, -0.5
